Source: PubChem BioAssay
CtBP-E1A inh: CtBP/E1A binding inhibition | AlphaScreen GST-E1A/His-CtBP binding, 1536-well; active compounds read low; control for the full effect not named in the record | activity change, % (concentration not given with the values) | hit rate 0.49% among 340,000 | AID 651724; in the data active means activity change below about -65%; inconclusive means about -30% to -65%; inactive means above about -30%; note: % is set by controls: 0 for no effect and ±100 for the full control effect
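Protein mix (5X: 125 nM each GST-E1A, His-CtBP) was incubated with pinned compound 2 h at 37 deg C in dark, in 50 mM Tris pH 8.0 buffer with 300 mM NaCl. Glutathione donor and nickel acceptor beads followed; AlphaScreen signal read after 1 h.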
PINK1 modulator: changes PINK1 expression; PINK1 immunofluorescence, high-content cytometry, 24 h; Potency, µM (top dose mostly 76.6 µM), without a hit: top-dose activation (PINK1 increase), most hits filed as activators; hit rate 0.2% among 410,000; AID 624263; active = well fitted activation curve with a large enough effect; inconclusive = small, poorly fitted or top-dose-only effect; inactive = flat fitted curve, though single readings scatter; cell line not stated here;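 note: potency is the fitted concentration of half-maximal effect; % of control where 0% means no effect; nearly all actives have a fitted effect of over 65% in size; a mitochondrial uncoupler was the plate control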
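Readout is PINK1 immunofluorescence, quantified alongside mitochondrial, cell and nuclear markers by laser-scanning microplate cytometry. Cells from a stable line were exposed to compound titrations (5 concentrations) for 24 hours, with CCCP controls.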
TRPML1 agonist: human mucolipin-1 channel agonism; Q9GZU1; hit rate 0.12% among 410,000; activation, % (concentration not given with the values); TRPML1-expressing cells, Ca2+ dye fluorescence, FDSS; host cell line not named in the record; reference of the full effect not given here; in the data active = activation above about 50%; inconclusive = about 30% to 50%; inactive = below about 30%; note: 0% is about no effect; the text of the record puts the active cut at 80%
Target sequence (Q9GZU1 whole entry, looked up): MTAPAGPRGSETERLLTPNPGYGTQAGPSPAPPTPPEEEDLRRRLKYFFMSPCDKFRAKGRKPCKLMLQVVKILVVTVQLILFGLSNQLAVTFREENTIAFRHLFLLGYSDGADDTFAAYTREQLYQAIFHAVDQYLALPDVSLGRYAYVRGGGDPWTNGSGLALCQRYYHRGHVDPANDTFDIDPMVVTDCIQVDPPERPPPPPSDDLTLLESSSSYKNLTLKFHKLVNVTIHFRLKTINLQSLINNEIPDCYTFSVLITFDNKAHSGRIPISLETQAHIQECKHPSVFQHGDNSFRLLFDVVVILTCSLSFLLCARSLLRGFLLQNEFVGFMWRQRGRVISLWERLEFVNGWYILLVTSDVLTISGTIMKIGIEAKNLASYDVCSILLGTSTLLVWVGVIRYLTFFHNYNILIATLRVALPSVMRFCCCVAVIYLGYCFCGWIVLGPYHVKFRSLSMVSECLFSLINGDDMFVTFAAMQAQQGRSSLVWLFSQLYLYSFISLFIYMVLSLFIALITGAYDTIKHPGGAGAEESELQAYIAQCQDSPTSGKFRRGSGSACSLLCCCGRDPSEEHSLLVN
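Agonist activity was taken from a 110 s kinetic Ca2+ dye read on the FDSS after pinning compounds onto TRPML1-DL cells. The cells were seeded at 1,500/well with Tet inducer, incubated about 16 h, then dye-loaded at room temperature.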
Six1-Eya2 blk: inhibitors of human Six1/Eya2 interaction. Q15475+O00167. AlphaScreen GST-Six1/His-Eya2 binding, biochemical; active compounds read low; control for the full effect not named in the record. activity change, % (no concentration beside the values). hit rate 0.56% among 360,000. AID 651725; in the data active = activity change below about -65%; inconclusive = about -30% to -65%; inactive = above about -30%; note: % is set by controls: 0 for no effect and ±100 for the full control effect
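AlphaScreen with GST-Six1 and His-Eya2 (5X mix: 250 nM and 500 nM), glutathione donor and nickel acceptor beads; buffer 50 mM Tris pH 8.0, 300 mM NaCl, 1 mM TCEP; 1 h at 37 C in the dark.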
TRPML1 blocker: human mucolipin-1 channel inhibition | Q9GZU1 | TRPML1-inducible cells, Ca2+ dye fluorescence, FDSS; active compounds read low; inhibition of EC80 agonist-evoked calcium signal | activity change, negative = inhibition, % (no concentration beside the values) | hit rate 0.02% among 390,000 | AID 624415; in the data active means activity change below about -50%; inconclusive means about -30% to -50%; inactive means above about -30%;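 note: stimulus is agonist 54-4 at its EC80 concentration; % is set by controls: 0 for no effect and ±100 for the full control effect; compound concentration not given in the record; the text of the record puts the active cut at -80%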
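Tet-induced TRPML1-DL cells loaded with Ca8 no-wash calcium dye were read kinetically on FDSS. Compound addition was followed by EC80 agonist 54-4 (4 uM final); inhibition was read over 110 s.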
D2 ag: activates the human D2 dopamine receptor. P14416. DiscoveRx PathHunter D2 beta-arrestin, luminescence, 90 min; 100% = 57 uM dopamine signal. activation, % (concentration not given with the values). hit rate 0.084% among 360,000; in the data active = activation above about 40%; inconclusive = about 15% to 40%; inactive = below about 15%; note: compound concentration not given in the record; the text of the record calls up to 30% inactive
Target sequence (P14416 whole entry, looked up): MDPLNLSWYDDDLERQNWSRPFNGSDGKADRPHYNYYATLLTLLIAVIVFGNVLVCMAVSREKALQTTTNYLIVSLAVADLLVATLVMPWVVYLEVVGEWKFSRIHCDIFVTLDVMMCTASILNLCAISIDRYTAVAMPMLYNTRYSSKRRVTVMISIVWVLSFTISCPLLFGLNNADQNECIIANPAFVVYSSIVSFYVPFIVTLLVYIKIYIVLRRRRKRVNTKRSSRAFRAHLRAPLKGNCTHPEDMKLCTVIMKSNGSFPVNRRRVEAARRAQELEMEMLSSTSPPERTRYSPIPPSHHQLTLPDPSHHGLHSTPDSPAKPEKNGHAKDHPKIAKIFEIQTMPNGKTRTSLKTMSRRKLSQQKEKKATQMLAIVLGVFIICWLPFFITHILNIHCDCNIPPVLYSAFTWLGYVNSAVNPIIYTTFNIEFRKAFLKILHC
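Agonist mode: compounds alone added to overnight-plated D2 PathHunter cells for 90 min at 37 C, with 57 uM final dopamine (EC100) defining full response. Beta-arrestin recruitment detected by chemiluminescent reagent, read after 1 h at ambient temperature.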
The depositor's hits bear a star; ? = inconclusive; . = not tested or not shown; & = joins results of further samples; [ ] = another dose, or the depositor's remark.

SMILES | CtBP-E1A inh | PINK1 modulator | TRPML1 agonist | Six1-Eya2 blk | TRPML1 blocker | D2 ag
Cc1ccc(NC(=S)N(CCN2CCOCC2)Cc2ccccc2F)cc1Cl | 4 | 1.7% | -1.0 | -4 | 0 | -1.4
O=C(NCc1ccc(C(F)(F)F)cc1)c1ccc(-c2cccnc2)c2ccoc12 | 0 | -0.3% | 1.4 | 0 | . | -8.0
Cn1nnnc1SCC(=O)Nc1ncc(Cl)cc1Cl | 8 | 0.3% | -0.8 | 0 | -4 | 4.5
CN(C)C1=NC[C@H](Cc2ccccc2)N1CCC1CCCC1 | 4 | 2.0% | -0.4 | 8 | 15 | 2.9
O=c1cc2c(nn1Cc1ccc(Cl)cc1Cl)-c1ccccc1CC2 | 4 | -0.6% | 1.8 | 7 | -2 | -1.7
CC(C)Cc1nnc(NC(=O)CCC(=O)NC2CCCC2)s1 | . | 1.0% | 1.7 | 2 | -13 | 0.5
COC(=O)C(C)Sc1nc2c([nH]c3ccccc32)c(=O)n1-c1ccc(OC)cc1 (configuration not stated) | . | -4.8% | 1.5 | . | -2 | .
Cc1ccc(-c2nc(Cn3c(SCc4ccc(F)cc4)nc4cccnc43)c(C)o2)cc1 | . | 7.0% | 0.4 | . | 10 | .
COC(=O)c1cc(C(=O)N2CCN(C(=O)c3ccco3)CC2)cc([N+](=O)[O-])c1 | 6 | -1.1% | 0.5 | 0 | 22 | 2.1
Cc1ccc(Nc2nnc(SCC(=O)NC3CCS(=O)(=O)C3)s2)c(C)c1 (configuration not stated) | 2 | 7.0% | -1.4 | 0 | -9 | -7.1
O=C(O)c1ccc(Sc2nnnn2-c2ccccc2)c([N+](=O)[O-])c1 | 6 | -0.6% | 1.2 | 3 | 5 | -1.9
O=C1CC(c2ccco2)CC(O)=C1C=NCCN1CCN(C(=S)Nc2ccccc2)CC1 (configuration not stated) | 8 | -1.3% | -0.6 | 0 | 23 | 0.2
CN1CCN(NC(=O)CN2C(=O)/C(=C/c3c(Cl)cccc3Cl)SC2=S)CC1 | -24 | -0.7% | 0.2 | -23 | 3 | 0.0
COc1cc(OC)c(NC(=O)c2nn(C)c3c2COc2ccccc2-3)cc1Cl | . | 0.0% | 0.7 | . | -16 | .
O=C(NCc1ccccc1)C(c1ccccc1)N(C(=O)c1csnn1)c1ccc(F)cc1 (configuration not stated) | 26 | 3.7% | 0.2 | 12 | 3 | -2.0
CCc1ccc(/C=c2\s/c(=C\C(=O)C(C)(C)C)[nH]c2=O)cc1 | -4 | ? | 3.1 | -15 | 25 | -5.8
O=C(CSc1nnc(CNC(=O)c2c(F)cccc2Cl)o1)NCc1ccc2c(c1)OCO2 | 0 | 2.2% | 0.3 | 5 | 12 | 1.2
COc1cccc(C(=O)Nc2ccc3nc(N4CCC(C)CC4)cc(C)c3c2)c1 | . | 7.1% | 0.1 | . | -2 | .
O=C1[C@@H]2[C@@H](CN3CN(c4ccccc4)N=C(c4ccccc4)[C@@]23c2ccccc2)C(=O)N1c1ccccc1 | 19 | 0.8% | 0.5 | -10 | 2 | 0.1
CCCN1CCC(N2CCN(c3ccc([N+](=O)[O-])cc3)CC2)CC1 | . | -1.4% | . | -7 | . | 8.4
C/C(=N\NC(=O)CNC(=O)C1COc2ccccc2O1)c1ccco1 (configuration not stated) | 2 | 0.2% | 0.5 | -2 | -3 | -2.1
O=C1CC(NCc2ccc3c(c2)OCO3)C(=O)N1CCc1ccccc1 (configuration not stated) | -3 | -2.7%[38.3 µM] | 1.9 | 3 | 20 | -0.6
Cc1cccn2cc(-c3ccc(Cl)cc3)nc12 | . | 0.7% | 2.0 | 3 | 4 | 1.4
Cc1c(C(=O)NCCN2C(=O)S/C(=C\c3cccnc3)C2=O)cccc1[N+](=O)[O-] | . | 1.1% | 0.3 | -10 | 8 | 1.0
C=CC[C@@H](CC(=O)N[C@@H](CO)Cc1ccccc1)C(=O)N[C@@H](COC(=O)[C@@H](CC=C)Cc1ccc(F)cc1)Cc1c[nH]c2ccccc12 | 5 | 4.0% | -0.1 | -1 | -17 | -0.4
Cn1c(N2CCN(C(=O)NC34CC5CC(CC(C5)C3)C4)CC2)nc2ccccc21 | 5 | -0.7% | 0.4 | 2 | 41 | -1.4
COc1cccc2c(=O)n(CC(=O)N3CCN(c4ccccc4)CC3)ccc12 | 2 | 2.8% | -0.5 | 3 | 22 | -4.7
Cc1csc(=S)n1-c1ccccc1 | 0 | 0.9% | -0.4 | 2 | 10 | -2.0
Cc1cc(/C=N/NC(=O)Cn2c3ccccc3c(=O)c3ccccc32)c(C)n1-c1ccccc1 | -4 | 3.2% | -0.2 | -29 | 9 | -5.7
Cc1cccc[n+]1CC(=O)Nc1cccc([N+](=O)[O-])c1 | -20 | -0.3% | 1.8 | 1 | 21 | -3.9
c1ccc(Nc2nc3ccccc3o2)cc1 | 6 | -4.4%[38.3 µM] | 1.3 | 2 | 22 | 1.1
CCC(=O)Nc1cccc(NC(=S)NC(=O)c2ccc(Cl)cc2)c1 | -2 | 18% | 0.1 | -4 | -21 | -6.3
CCCSc1nnc(NC(=O)Nc2ccccc2)s1 | 14 | 45µM* | 1.8 | 5 | 7 | 2.0
CC(=O)c1cccc(-n2c(=O)c3c4c(sc3n(CC(=O)Nc3ccccc3F)c2=O)CN(C(C)=O)CC4)c1 | . | 2.2% | -0.1 | . | -26 | .
CN(C)S(=O)(=O)N1CCc2ccc(NC(=O)C3CCCO3)cc2C1 (configuration not stated) | -3 | 0.4% | 0.5 | 14 | 3 | -0.8
COc1ccc(NC(=O)Cc2c(C(=O)O)[nH]c3ccccc23)cc1OC | . | 0.5% | -0.8 | . | 24 | .

A portion taken from the entries so far, for reference:
SMILES | CtBP-E1A inh | PINK1 modulator | TRPML1 agonist | Six1-Eya2 blk | TRPML1 blocker | D2 ag
Cc1ccc(NC(=S)N(CCN2CCOCC2)Cc2ccccc2F)cc1Cl | 4 | 1.7% | -1.0 | -4 | 0 | -1.4
O=C(NCc1ccc(C(F)(F)F)cc1)c1ccc(-c2cccnc2)c2ccoc12 | 0 | -0.3% | 1.4 | 0 | . | -8.0
Cn1nnnc1SCC(=O)Nc1ncc(Cl)cc1Cl | 8 | 0.3% | -0.8 | 0 | -4 | 4.5
CN(C)C1=NC[C@H](Cc2ccccc2)N1CCC1CCCC1 | 4 | 2.0% | -0.4 | 8 | 15 | 2.9
O=c1cc2c(nn1Cc1ccc(Cl)cc1Cl)-c1ccccc1CC2 | 4 | -0.6% | 1.8 | 7 | -2 | -1.7
CC(C)Cc1nnc(NC(=O)CCC(=O)NC2CCCC2)s1 | . | 1.0% | 1.7 | 2 | -13 | 0.5
COC(=O)C(C)Sc1nc2c([nH]c3ccccc32)c(=O)n1-c1ccc(OC)cc1 (configuration not stated) | . | -4.8% | 1.5 | . | -2 | .
Cc1ccc(-c2nc(Cn3c(SCc4ccc(F)cc4)nc4cccnc43)c(C)o2)cc1 | . | 7.0% | 0.4 | . | 10 | .
COC(=O)c1cc(C(=O)N2CCN(C(=O)c3ccco3)CC2)cc([N+](=O)[O-])c1 | 6 | -1.1% | 0.5 | 0 | 22 | 2.1
Cc1ccc(Nc2nnc(SCC(=O)NC3CCS(=O)(=O)C3)s2)c(C)c1 (configuration not stated) | 2 | 7.0% | -1.4 | 0 | -9 | -7.1

Next results follow:
SMILES | CtBP-E1A inh | PINK1 modulator | TRPML1 agonist | Six1-Eya2 blk | TRPML1 blocker | D2 ag
CCOC(=O)C1CCCN(C(=S)Nc2ccc(S(=O)(=O)N3CCOCC3)cc2)C1 (configuration not stated) | -4 | 2.0% | -0.6 | 2 | 2 | -2.7
COC(=O)c1ccc(COC(=O)c2c(C)nn(Cc3ccccc3Cl)c2Cl)o1 | 5 | 1.9%[38.3 µM] | 2.3 | 8 | 23 | 1.2
COc1cc2[nH]c(C(=O)Nc3ccc4c(c3)OCCO4)cc2c(OC)c1OC | -12 | 0.0% | 0.3 | -10 | -1 | 1.2
CC(=O)C1=C(C)NC(=O)NC1c1cccc(O)c1 (configuration not stated) | 5 | 3.1%[38.3 µM] | -0.6 | 3 | 2 | -2.1
Cc1ccc2[nH]c3c(=O)n(CC(=O)NCCc4ccc(Cl)cc4)ncc3c2c1 | 3 | -0.5%&0.8% | -0.6&2.5 | 2 | 1&9 | -1.8
Cc1c(OC(C)C(=O)NCCN2CCOCC2)ccc2c3c(c(=O)oc12)CCCC3 (configuration not stated) | -6 | -0.6% | 1.4 | -4 | 34 | 3.7
CN(CC(=O)Nc1cccc(F)c1)C(=O)c1cc(S(=O)(=O)N(C)C)ccc1N1CCCC1 | -3 | 4.3% | -0.1 | 5 | -1 | -3.0
COc1ccc(N2CCN(S(=O)(=O)c3cccs3)CC2)cc1 | -15 | -2.8% | -0.1 | -21 | -1 | -2.4
COc1ccc(CCNC(=O)CCNS(=O)(=O)c2cccc3nsnc23)cc1OC | 4 | 0.4% | 1.8 | 4 | -1 | -4.1
Cc1ccc(COc2ccsc2C(=O)O)cc1 | 1 | 1.3% | -0.5 | 11 | -20 | -0.6
Cc1cccc(N2C(=O)C3C4C=CC(C5CC45)C3C2=O)n1 (configuration not stated) | 7 | 2.3% | -0.4 | 7 | 13 | -5.6
CCOC(=O)C1C(c2ccc(O)c(O)c2)NC(=S)NC1(O)C(F)(F)F (configuration not stated) | -8 | 0.3% | -0.5 | 4 | 12 | 0.5
COc1ccc(NC2CCCN(C(=O)CCc3cccc(F)c3)C2)cc1 (configuration not stated) | 0 | -1.3% | -0.5 | -15 | 5 | -1.2
Cc1ccc2oc(=O)c3cnn(CC(=O)NC4CCN(Cc5ccccc5)CC4)c3c2c1 | -13 | 2.0% | -0.3 | 2 | 4 | 0.0
O=S(=O)(c1ccccc1)N1CCNCC1 | 8 | -2.7% | 0.2 | -14 | 36 | 0.0
O=C(Nc1ccc2oc(=O)ccc2c1)c1ccc(-c2cccc([N+](=O)[O-])c2)o1 | -7 | -1.2% | 0.7 | ? | -4 | 4.9
O=C(/C=C/c1cccc([N+](=O)[O-])c1)OC1CCCCC1=O (configuration not stated) | -8 | -2.0% | 1.9 | 3 | -9 | -5.3
COC(=O)c1sc2nc(CN3CCN(c4cccc(C(F)(F)F)c4)CC3)[nH]c(=O)c2c1C | 0 | 12% | -0.2 | -10 | -6 | -2.6
CCn1c(SCC(=O)Nc2nccs2)nnc1-c1ccccc1 | -8 | -0.6%[38.3 µM] | -0.1 | -3 | -12 | -0.8
CN1CCN(c2nc3cc(N4CCOCC4)ccc3s2)CC1 | -9 | 1.0% | 0.0 | 8 | -9 | 1.9
CCOC(=O)c1c(C(C#N)C#N)cc(C)nc1C | 0 | -0.1% | 2.4 | -2 | -5 | -4.7
CCOC(=O)c1sc(N)nc1-c1ccccc1 | -3 | 1.0% | 1.0 | 2 | 30 | -1.9

An excerpt of these results, with two lines to a compound.
Values run as follows: CtBP-E1A inh	PINK1 modulator	TRPML1 agonist	Six1-Eya2 blk	TRPML1 blocker	D2 ag
CN1CCN(c2nc3cc(N4CCOCC4)ccc3s2)CC1
    -9	1.0%	0.0	8	-9	1.9
CCOC(=O)c1c(C(C#N)C#N)cc(C)nc1C
    0	-0.1%	2.4	-2	-5	-4.7
